Assay outcomes (PubChem)
Ecoli rRNA inh: reduced GFP signal of wild-type E. coli, primary screen, bacterial rRNA inhibitor project, GFP/RFP fluorescence, OD600, single point | E. coli WT GFP vs humanized-ribosome RFP mutants, 24 h; hits give low values; DMSO median 0, no signal -100 | 350,000 compounds, 1.6% hits | GFP signal change (wild-type ribosome), % (no concentration beside the values);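 active means significant combined selectivity score with lowered wild-type GFP, culture density cut under 30%, mutant RFP and density less affected; inactive means any of these conditions unmet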; further: one replicate is shown; some compounds called inactive have numbers as strong as hits
Beta cell apopt: inhibitors of cytokine-induced beta cell apoptosis, primary screen, luminescence; INS-1E cytokine-induced death, ATP luminescence, 48 h; percent of positive-control rescue, neutral wells zero; protection from apoptosis, % (no concentration beside the values); 300,000 compounds, 0.8% hits; AID 435005, 2010;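 active means all replicates at 75% or more, or half of them and the mean; inconclusive means half reach 75% but not the mean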;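 further: 0% = cytokine-treated negative control wells and 100% = positive control rescue; higher means more ATP so stronger rescue from cytokine killing; wells of about 40 µL received 100 nL stock; the first replicate is given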
FGF22 binding: binders of human FGF22 protein, primary screen, FGF22 synaptogenesis inhibitor project, biophysical, thermal shift, single point. Fibroblast growth factor 22 (Homo sapiens), Q9HCT0. 340,000 compounds, 1.5% hits. recombinant FGF22 thermal shift, SYPRO orange fluorescence; percent of sucrose octasulfate shift, DMSO zero. calls only at 9.99 µM;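 active means melting point raised past a set limit in the mean and every replicate; inconclusive means no clear call; three in four hits are not shown here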
Target sequence (Q9HCT0 whole entry, looked up): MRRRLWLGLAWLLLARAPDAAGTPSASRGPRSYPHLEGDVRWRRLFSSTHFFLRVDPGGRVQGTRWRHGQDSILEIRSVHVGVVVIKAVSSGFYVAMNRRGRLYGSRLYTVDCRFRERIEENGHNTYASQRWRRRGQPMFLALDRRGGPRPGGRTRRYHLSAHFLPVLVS
RanGTP-Imp inh: inhibitors of RanGTP-importin-beta interaction, primary screen, biochemical, FRET, CFP-Ran, YFP-importin-beta, homogeneous; inhibition, % (no concentration beside the values); cell-free CFP-Ran/YFP-importin-beta FRET ratio; AID 2216, 2009; 300,000 compounds, 1.1% hits;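 active means most replicates above 15%; inconclusive means exactly half above 15%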;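 further: 0% = DMSO wells and 100% = Ran loaded with GDP instead of GTP; wells of about 40 µL received 100 nL stock; the first replicate is given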
T cruzi inh: inhibitors of intracellular T. cruzi growth, primary screen, luminescence, NIH3T3 host cells; T. cruzi beta-gal in NIH3T3, 90 h; 300,000 compounds, 1.4% hits; inhibition, % (no concentration beside the values); AID 1885, 2009;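 active means mean inhibition across valid replicates above about 55%, limit read from the data; inconclusive means mean below that limit but half or more replicates reach it; inactive means mean below it, under half of replicates reach it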;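 further: signal also drops with host cell toxicity which is not excluded here; 0% = plate median of DMSO wells and 100% = zero luminescence signal; higher percent means less beta-gal luminescence so fewer parasites; stock transfer was 50 nL into about 50 µL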
AF4-AF9 inh: inhibitors of AF4 peptide binding to AF9, primary screen, biochemical, AlphaScreen, biotin-AF4 peptide, FLAG-AF9, single point | inhibition, % at 10 µM | 350,000 compounds, 0.47% hits | AID 651704, 2012 | Protein AF-9 (Homo sapiens), P42568;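 active means every replicate reaching a set inhibition limit, whatever the replicate mean, cut at about 25% in these data; inconclusive means mean inhibition reaches that limit but some replicates miss it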;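 further: 0% = plate neutral control median and 100% = total signal loss; the record names both 10 and 1 µM as test concentration; the first replicate is given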
Target sequence (P42568 whole entry, looked up): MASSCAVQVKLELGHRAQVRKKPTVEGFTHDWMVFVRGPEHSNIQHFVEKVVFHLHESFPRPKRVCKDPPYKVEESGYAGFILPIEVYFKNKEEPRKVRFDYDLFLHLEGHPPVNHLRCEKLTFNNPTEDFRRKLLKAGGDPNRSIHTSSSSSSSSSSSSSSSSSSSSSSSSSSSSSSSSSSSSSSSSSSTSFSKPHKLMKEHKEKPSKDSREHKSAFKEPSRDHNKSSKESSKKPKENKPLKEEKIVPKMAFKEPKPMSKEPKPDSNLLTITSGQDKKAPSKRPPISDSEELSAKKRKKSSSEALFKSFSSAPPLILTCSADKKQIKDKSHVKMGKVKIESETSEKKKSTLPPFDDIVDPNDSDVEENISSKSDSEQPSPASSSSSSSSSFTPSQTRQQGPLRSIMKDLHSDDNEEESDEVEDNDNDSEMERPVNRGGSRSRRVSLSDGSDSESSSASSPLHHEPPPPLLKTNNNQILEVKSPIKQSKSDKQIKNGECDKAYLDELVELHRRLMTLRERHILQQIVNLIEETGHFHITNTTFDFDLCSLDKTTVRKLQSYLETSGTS
Calb FLC: C. albicans growth inhibition with fluconazole, primary screen, CaCi-2 strain, Alamar Blue fluorescence; C. albicans CaCi-2 (fluconazole-resistant clinical isolate) + fluconazole, 48 h; growth inhibition, % (no concentration beside the values); 300,000 compounds, 0.57% hits; AID 1979, 2009;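 active means most replicates above 75%; inconclusive means exactly half above 75%; inactive means most below 75%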;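 further: all wells also contain fluconazole at 8 µg/ml as a sub-toxic cotreatment; 0% = median of DMSO wells and 100% = median of geldanamycin control wells; wells of about 8 µL received 7.5 nL stock; the first replicate is given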
ALR inh: inhibitors of human ALR sulfhydryl oxidase, primary screen, biochemical, H2O2 detection, HRP-luminol luminescence, single point; inhibition, % (test concentration not listed); FAD-linked sulfhydryl oxidase ALR (Homo sapiens), P55789; AID 485317, 2010; purified ALR, DTT oxidation; 290,000 compounds, 3.8% hits;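 active means mean and each replicate at 75% or more; inconclusive means only one of the two met; inactive means neither met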;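 further: stock transfer was 7.5 nL into about 7.5 µL; 0% = neutral wells and 100% = wells with inactivated enzyme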
Target sequence (P55789 whole entry, looked up): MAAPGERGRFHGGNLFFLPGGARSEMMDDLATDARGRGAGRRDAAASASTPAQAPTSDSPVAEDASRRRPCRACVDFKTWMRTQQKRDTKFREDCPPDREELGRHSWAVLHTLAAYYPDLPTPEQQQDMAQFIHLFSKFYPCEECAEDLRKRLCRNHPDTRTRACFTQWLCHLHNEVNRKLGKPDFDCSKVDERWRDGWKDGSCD
Ecoli rRNA inh OD600: recorded beside Ecoli rRNA inh, whose call it bears; OD600 change, %; measured here: OD600 growth;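 optical density of the mix in the first replicate; 0 = DMSO median and -100 = no signal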
Ecoli rRNA inh RFP: further read-out of Ecoli rRNA inh, marked with its call; RFP signal change, %; measured here: RFP humanized mutant strains;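 first replicate; 0 = DMSO median and -100 = no signal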
* = called active by the depositor; i = inactive; u = inconclusive; x = not tested or not shown. This is a subset, so the mix of outcomes need not match the whole.

Structure	ALR inh	Beta cell apopt	Ecoli rRNA inh RFP	RanGTP-Imp inh	Ecoli rRNA inh OD600	T cruzi inh	Ecoli rRNA inh	Calb FLC	FGF22 binding	AF4-AF9 inh
COc1cc(O)c(C(CCN2CCN(c3ccccc3)CC2)c2ccc(N(C)C)cc2)c(OC)c1 (stereo not drawn)	-14	-2	14	3.1	-10	41	0	-19	i	50*
O=C(CSc1nnnn1Cc1ccccc1)NCC(=O)c1ccccc1	-2	0	x	-1.2	x	-18	x	7	x	x
CCOc1ccc(Cn2c(=O)oc3ccccc32)cc1	3	x	6.0	2.7	11	-10	7	2	i	-2.9
CCC(C)C(=O)Nc1ccc(S(=O)(=O)N2CCCC2)cc1 (stereo not drawn)	-2	-25	3.3	-4.3	4	-2	4	-1	i	-3.4
Cc1cc(C)cc(NC(=O)CN2C(=O)COc3ccc(S(=O)(=O)N4CCCC4)cc32)c1	-5	-2	-2.6	u	6	11	2	-1	i	0.2
CCOc1ccc(NC(=O)CSc2nnc(C)n2CC)cc1	-7	-6	0.2	3.0	8	-16	4	28	i	-0.2
COc1ccc(OC)c(NC(=O)CN2C(=O)C(=O)N(Cc3ccccc3)C2=O)c1	-4	-1	-1.5	x	0	x	5	x	i	1.3
CC(C)c1ccc(/C=N/N2CCN(c3ccccn3)CC2)cc1	-13	4	-2.9	0.6	-2	1	6	-25	i	1.1
OC1(c2cccs2)CN(c2ccc(Cl)cc2)C2=[N+]1CCCC2 (stereo not drawn)	x	1	0.2	2.6	-8	13	7	8	i	3.2
COCCNC(=O)C(c1cccnc1)N(Cc1ccc(C)cc1)C(=O)Cn1nnc2ccccc21 (stereo not drawn)	0	0	0.3	2.1	16	0	12	-1	i	-3.8
CCc1cccc(C)c1NC(=O)CCN1C(=O)NC(C)(C)C1=O	-2	-3	22	x	4	x	-4	x	i	-1.4
O=C(N/N=C/c1ccc(OC(F)F)cc1OC(F)F)NC1CCCCC1	8	4	-0.8	-0.9	-2	28	-9	-9	i	3.3
Cc1c(C)c2ccc(OCC(=O)NCCCN3CCCC3=O)cc2oc1=O	-20	-2	1.2	-0.8	7	-14	-2	4	i	-12
O=C(c1cc2c([nH]c1=O)CCCC2)N1CCc2c([nH]c3ccccc23)C1c1ccccc1F (stereo not drawn)	-2	-2	-0.7	1.0	-23	2	-15	u	i	7.7
CCN(CC)S(=O)(=O)c1cc(C(=O)c2nccn2C)ccc1Cl	-12	-2	2.5	2.8	-2	-7	-10	-5	i	1.8
CCCCn1nnc(NC(=O)c2sc3cc(Cl)ccc3c2Cl)n1	-10	-6	x	1.8	x	-2	x	x	x	x
COc1ccc(Cl)cc1NC(=O)CN(C)C(=O)CN1C(=O)NC(C)(C)C1=O	-1	1	-0.6	x	11	x	9	x	i	7.0
C/C(=N\Nc1ncc(Cl)cc1Cl)c1ccc(C#N)cc1	-2	5	-1.7	0.7	-1	-6	0	-7	i	3.6
COc1cc(/C=C/C(=O)N2CCCN(C(=O)/C=C/c3cc(OC)c(OC)c(OC)c3)CC2)cc(OC)c1OC	-12	-11	x	0.1	x	5	x	56	x	x
Cc1cc(N2CCN(C)CC2)n2cc(-c3ccc(F)cc3)nc2n1	72	-1	x	7.5	x	6	x	-3	x	x
O=C(Cc1ccc(F)cc1)Nc1ccc(S(=O)(=O)N2CCCC2)cc1	5	-1	-1.3	0.9	-2	-9	-2	0	i	0.1
Cc1ccc(OCC(=O)N/N=C\c2ccc(O)cc2)c([N+](=O)[O-])c1	87*	2	3.2	3.0	5	3	11	-9	i	-2.3
O=C(Nc1cccc([N+](=O)[O-])c1)c1ccc(CSc2ccccc2)cc1	-8	1	x	-2.4	x	-14	x	4	x	x
COc1ccc(NC(=O)CSc2ccc(-c3cccs3)nn2)c(OC)c1	-1	-3	-3.8	-0.1	12	3	12	14	i	-1.0
Cc1cccc(NC(=O)Cn2cc(C(=O)c3ccco3)c3ccccc32)c1	3	-2	x	3.5	x	-10	x	-1	x	x
Cc1ccccc1NC(=O)COC(=O)CCc1c[nH]c2ccccc12	13	-1	0.9	x	-5	x	6	x	i	2.7
O=C1OCC(CO)(CO)N=C1NNc1ccc(Cl)c(Cl)c1	100*	0	-13	0.3	-46	4	-45	u	i	11
COc1ccc(-c2noc(N3CCCC(C(=O)Nc4cc(F)ccc4F)C3)n2)cc1 (stereo not drawn)	-10	-2	-2.1	5.1	3	9	-5	-1	i	4.7
O=C1CC(C(=O)Nc2ccccc2)C2(CCCCC2)O1 (stereo not drawn)	0	-1	x	1.8	x	-13	x	-7	x	x
CS(=O)(=O)N(Cc1ccccc1)c1ccc(C(=O)NCc2cccnc2)cc1	-26	-2	x	0.8	x	7	x	1	x	x
O=C1/C(=C\c2ccsc2)NC(=S)N1c1ccccc1	44	7	-7.9	5.0	-4	4	4	1	i	3.4
COC(=O)C(CC(=O)c1ccc(Cl)cc1)c1ccc(C)cc1 (stereo not drawn)	-6	-6	x	4.4	x	8	x	-2	x	x
CSCCC(NC(=O)c1ccccc1Br)C(=O)N1CCCC(C(F)(F)F)C1 (stereo not drawn)	-4	-4	0.4	-1.3	12	-4	9	-1	i	0.6
COc1ccc(-n2c(C)cc(C(=O)CSc3ccc(NC(C)=O)cc3)c2C)cc1	97*	5	x	1.0	x	11	x	0	x	x
CCC(=O)Nc1nnc(CSCc2ccccc2)s1	3	-5	x	-1.9	x	4	x	-11	x	x
Cc1cc2c(cc1S(=O)(=O)N1CCN(c3cccc(C)c3C)CC1)OCC(=O)N2	x	-3	0.1	-3.8	-22	21	4	-5	i	6.5
C(#CCN1CCC(Cc2ccccc2)CC1)COCCOCc1ccccc1	1	5	x	3.4	x	7	x	1	x	x
COc1ccccc1NC(=O)Cc1c(F)cccc1Cl	x	-3	x	0.7	x	-1	x	12	x	x
S=c1[nH]nc(-c2ccco2)n1/N=C/c1cccs1	12	x	x	0.5	x	-1	x	50	x	x
Cc1cn([C@H](C(=O)NCCCCCCCCCCC(=O)N2CCNCC2)[C@@H](C)O)nn1	-15	-2	0.1	x	15	x	15	x	i	0.6
CN(C(=O)COC(=O)/C=C/c1ccc(C(F)(F)F)cc1)c1c(N)n(Cc2ccccc2)c(=O)[nH]c1=O	-4	2	-2.2	0.6	4	-8	1	3	i	-0.5
Nc1nc(-c2cccs2)c(-c2cccs2)s1	x	-6	1.7	-1.8	-55	3	-39	-4	i	6.6
CC(C)(C)c1nnc(NC(=O)CN2C(=O)C3C4C=CC(C4)C3C2=O)s1 (stereo not drawn)	-13	0	x	0.8	x	-1	x	8	x	x
CCN(c1cccc(C(F)(F)F)c1)S(=O)(=O)c1ccc2c(c1)CCN2C(=O)C1CC1	-2	x	x	1.5	x	4	x	-3	x	x
Cc1cccc(OCC(=O)NCC(=O)N/N=C/c2c(C)[nH]c3ccccc23)c1	37	5	0.2	1.1	-7	6	-17	1	i	-24
CC(C)c1ccc(NC(=S)NCc2ccc3c(c2)OCO3)cc1	0	-5	-9.1	1.1	-47	2	-44	-7	i	0.6
CN(C)CCN1C(=O)c2oc3ccc(F)cc3c(=O)c2C1c1ccncc1 (stereo not drawn)	x	-4	-1.9	0.2	9	-19	2	2	i	2.6
Cc1ccc(OCC(O)CN2CCOCC2)cc1 (stereo not drawn)	-3	-4	-1.1	3.1	3	-13	4	-3	i	-0.6
O=c1cc2c(nn1Cc1c(Cl)cccc1Cl)-c1ccccc1CC2	-2	-1	x	2.6	x	50	x	5	x	x
NCCN=C1NS(=O)(=O)c2ccccc21	-12	x	-2.7	2.5	11	-4	13	-10	i	6.4
NC(=O)CS(=O)(=O)c1nc2ccccc2n1CC(=O)N1CCCCC1	-3	-7	x	3.0	x	3	x	-5	x	x
CCOCC(O)CNC(=O)c1ccc2nc(Cc3ccc(OC)c(OC)c3)oc2c1 (stereo not drawn)	0	x	3.0	3.2	7	-9	9	8	i	0.0
COC(=O)c1c(C(=O)OC)c2n(c1C)CCS2	6	-5	-5.8*	6.2	-9.3*	-8	-22*	-8	i	5.2
CC(C)CNS(=O)(=O)c1ccc(CCC(=O)NCCc2ccccc2)cc1	0	x	-3.7	-2.6	-6	9	-6	-6	i	-0.2
O=C(Oc1ccc(-n2cnnn2)cc1)c1ccco1	-4	0	x	-0.2	x	-22	x	1	x	x
COC(=O)c1ccccc1NC(=O)C1CCCN(S(C)(=O)=O)C1 (stereo not drawn)	-1	-3	-6.7	2.8	-13	-36	-1	-1	x	-31
OCCN1CCN(Cc2cc(Cl)c3cccnc3c2O)CC1	13	3	x	40*	x	-11	x	103*	x	x
N#Cc1cc(N2CCCCC2)c([N+](=O)[O-])cc1C#N	-3	-2	1.6	-1.0	-1	-4	8	-33	i	-1.4
O=C(NCCC(=O)N1CCN(c2ncccn2)CC1)c1ccccc1Cl	-11	1	x	1.7	x	-1	x	-22	x	x
CC(=O)Nc1ccc(NC(=O)CSc2ccc(-c3cccs3)nn2)cc1	1	3	2.7	-4.3	16	5	13	-17	x	-1.4

Continued:
Structure	ALR inh	Beta cell apopt	Ecoli rRNA inh RFP	RanGTP-Imp inh	Ecoli rRNA inh OD600	T cruzi inh	Ecoli rRNA inh	Calb FLC	FGF22 binding	AF4-AF9 inh
Cc1cc(C(F)(F)F)nn1CC(=O)NNC(=S)NCC(C)C	28	0	x	9.5	x	-7	x	7	x	x
COC(=O)c1ccc2c(=O)n(CCO)c(=S)[nH]c2c1	47	6	x	-1.0	x	-5	x	-1	x	x
O=C(Cc1ccc(Br)cc1)N/N=C/c1ccc(-c2cccc(C(=O)O)c2)o1	3	-2	-3.8	8.0	-1	11	-2	4	i	-5.6
CC1=CC2=NC(=O)/C(=C\c3cccn3CCOc3cc(C)ccc3C)C(=N)N2O1	4	8	-3.2	2.5	-10	19	-20	-4	i	3.5
COC(=O)C(Cc1ccc(O)cc1)NC(=O)C1CCN(S(=O)(=O)c2ccc(C)cc2)CC1 (stereo not drawn)	5	-8	-2.9	-1.7	2	10	-6	-7	i	-2.0
CCCCNS(=O)(=O)c1ccc2c(c1)oc(=O)n2CC(=O)OCC	-8	x	0.7	-1.7	13	1	7	-5	i	1.1
